CSC inhib: cancer stem cell inhibition; inhibition, % at 7.5 µM; cancer stem cell-like cells viability, luminescence; 300,000 tested, 1.1% active; AID 2717;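 active = mean at 75% or more and at least half the replicates too; inconclusive = mean and replicates disagree; tested in HMLE shEcad cells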;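 note: 0% = median of negative and 100% = median of positive control wells; the first replicate is given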
Rce1 inh: inhibitors of yeast Ras-converting enzyme | yeast membranes, quenched prenylated peptide cleavage fluorescence | AID 2563 | Q03530 | 290,000 tested, 0.27% active | calls only;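 active = fall in fluorescence gain of 50% or more versus controls, with final raw signal at or below 3038400; inconclusive = same 50% fall but final raw signal above 3038400; inactive = fall in fluorescence gain under 50%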;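 note: plate controls were neutral control wells for no effect and wells lacking membranes for full effect; tested at 10 µM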
Target sequence (Q03530 whole entry, looked up): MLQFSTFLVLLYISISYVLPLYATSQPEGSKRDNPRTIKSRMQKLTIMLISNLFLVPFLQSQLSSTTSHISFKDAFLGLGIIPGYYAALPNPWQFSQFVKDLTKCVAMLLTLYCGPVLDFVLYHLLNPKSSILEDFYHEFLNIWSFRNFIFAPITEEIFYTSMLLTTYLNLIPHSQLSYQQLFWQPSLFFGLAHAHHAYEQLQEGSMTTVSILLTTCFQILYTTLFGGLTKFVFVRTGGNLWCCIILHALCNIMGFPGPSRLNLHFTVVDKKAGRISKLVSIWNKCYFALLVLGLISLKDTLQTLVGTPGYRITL
MT1-MMP act inh: blocks activation of human MT1-MMP; P50281; HT1080 RFP-PRO-GFP cells, GFP/RFP ratio fluorescence, overnight; percent of plate control window, DMSO zero; GFP/RFP ratio change, % at 20 µM; 360,000 tested, 0.061% active; AID 651647;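 active = GFP/RFP ratio change of at least 30% with cell ATP level not reduced by more than half and red fluorescence within 50% of control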; note: strong numbers were not always called active
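Assay system: HT1080 cells carrying an RFP-PRO-GFP reporter | Dosing: Single dose of 20 µM compound, 1% DMSO final | Incubation: Cells overnight before dosing, compound overnight, 37 °C, 5% CO2 | Evaluation: GFP/RFP fluorescence ratio | Control set: DMSO and RFP-L50D-GFP cell wells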
eIF4H FP inh: inhibitors of RNA binding by human eIF4H; Q15056; eIF4H fluorescence polarization binding assay; inhibition, % at 35 µM; 290,000 tested, 0.94% active;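 active = 50% or more with normal probe brightness, or confirmed in later tests; inconclusive = above 50% with abnormal brightness, or retests that disagree; inactive = below 50% or failed in later tests; about a fifth of its hits are not listed in these tables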;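 note: calls also rest on retests at 20 µM and on dose response follow-up; 0% = protein and probe with vehicle and 100% = probe without protein; strong numbers were not always called active; many hits fall short of the cut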
UUG fidelity: modulators of start codon recognition fidelity in yeast; S. cerevisiae UUG-firefly luciferase reporter, luminescence/redox ratio; AID 602363; activity score, % at 18.7 µM; 350,000 tested, 0.13% active;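 active = replicate mean at a twofold rise or more, about +100% in these data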;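 note: firefly luciferase made from a UUG start codon reports start codon fidelity; reporter light over untreated wells divided by growth signal over untreated wells; some hits fall short of that in this replicate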
HIV Env fusion: inhibitors of HIV Env-mediated cell fusion; HeLa-JRFL Env/CEM21 cell fusion, luciferase; inhibition, % at 12.3 µM; 360,000 tested, 1.1% active; AID 651610;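 active = mean replicate inhibition score of at least 50 and every replicate individually at or above 50; inconclusive = only one of the two criteria met; inactive = mean below 50 and not all replicates reaching 50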;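 note: 0% = plate neutral controls and 100% = maraviroc near 300 nM; one replicate is shown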
PABP FP inh: blocks human PABP binding to poly(A) RNA; P11940; fluorescence polarization; inhibition, % at 35 µM; 290,000 tested, 1% active; AID 2014;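 active = 50% or more with normal probe brightness, or confirmed in later tests; inconclusive = above 50% with abnormal brightness, or retests that disagree; inactive = below 50% or failed in later tests; about a fifth of its hits are not listed in these tables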;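 note: calls also rest on retests at 20 µM and on dose response follow-up; controls were probe without protein and protein plus probe with vehicle; some compounds called inactive have numbers as strong as hits; many hits fall short of the cut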
Target sequence (P11940 whole entry, looked up): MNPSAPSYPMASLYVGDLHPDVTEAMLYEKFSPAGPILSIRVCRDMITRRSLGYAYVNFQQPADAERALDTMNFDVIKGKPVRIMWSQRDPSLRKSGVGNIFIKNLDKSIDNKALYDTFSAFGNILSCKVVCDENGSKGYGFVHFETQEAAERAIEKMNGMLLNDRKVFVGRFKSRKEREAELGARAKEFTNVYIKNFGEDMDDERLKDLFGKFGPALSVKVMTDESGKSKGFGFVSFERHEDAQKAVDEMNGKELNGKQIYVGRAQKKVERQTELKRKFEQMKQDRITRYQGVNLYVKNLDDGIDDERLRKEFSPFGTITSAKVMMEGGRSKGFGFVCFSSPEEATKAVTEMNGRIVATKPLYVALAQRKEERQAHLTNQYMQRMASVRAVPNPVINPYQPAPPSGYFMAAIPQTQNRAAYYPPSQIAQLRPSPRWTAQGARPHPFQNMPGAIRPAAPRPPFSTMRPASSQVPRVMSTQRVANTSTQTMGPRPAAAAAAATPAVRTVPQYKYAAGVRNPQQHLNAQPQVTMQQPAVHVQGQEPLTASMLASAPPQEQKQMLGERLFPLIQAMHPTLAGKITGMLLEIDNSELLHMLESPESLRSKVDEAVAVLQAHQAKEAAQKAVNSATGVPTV
eIF4H FP inh retest: also measured in eIF4H FP inh; calls as there; inhibition, %; compound at 20 µM; confirmation average;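 mean of two retest wells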
PABP FP inh retest: further read-out of PABP FP inh, marked with its call; inhibition, %; compound at 20 µM; confirmation repeats;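 mean of two retest wells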
MT1-MMP act inh RFP: recorded beside MT1-MMP act inh, whose call it bears; RFP signal change, %; measured here: RFP expression control read;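 0 = vehicle wells; hits needed this value within 50% of zero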
* hit, by the source's call; i = inactive; ? = inconclusive; · = no result given; & = joins results of further samples.

SMILES	CSC inhib	Rce1 inh	MT1-MMP act inh	MT1-MMP act inh RFP	eIF4H FP inh	UUG fidelity	HIV Env fusion	PABP FP inh	others
CCN(CC)c1ccc(/C=N/NC(=O)CNC(=O)c2cccs2)cc1	-8	i	-2	-4	-13	-10	-5	-1
C=CC[C@@H](CC(=O)N(CCO)Cc1ccccc1)C(=O)NC[C@H](OC(=O)[C@@H](CC=C)Cc1ccc(F)cc1)c1ccccc1	30	·	-35	-27	·	-6	-2	·
CC[N+](C)(C)CCN(Cc1ccc(Cl)cc1)c1ccccn1	9	i	2	5	0	-50	-69	-10
CCN1C(=O)[C@H]2[C@@H](c3ccc(OC)cc3)N[C@]3(CCCN(Cc4ccc(Cl)cc4)C3=O)[C@H]2C1=O	·	·	5	-2	·	4	1	·
Cc1ccc(S(=O)(=O)NC(=O)COc2ccccc2C)cc1	-4	·	1	7	-6	-16	·	-17
Cc1cccc(NC(NC(=O)c2ccccn2)C(Cl)(Cl)Cl)c1 (centres undefined)	-6	i	1	3	-4	-22	·	-1
Cc1ccc(N=C2C(=O)Nc3ccccc32)cc1C	0	i	0	7	2	-4	10	-2
COc1ccc(C(=O)N/C(=C\c2ccc3c(c2)OCO3)C(=O)N2CCOCC2)cc1	4	i	-1	0	94	-7	11	-7	eIF4H FP inh retest=5;PABP FP inh retest=8
COc1ccc(/C=N/NC(=O)c2nc(-c3ccccc3)cc(-c3ccccc3)n2)cc1	-1	i	5	-6	-4	-21	·	-2
Cc1ccc(C(=O)N2CCN(Cc3ccc4c(c3)OCO4)CC2)cc1C	-8	i	-2	-6	-6	-8	-4	10
CCOC(=O)c1c(C(=O)OCC)c(C)n(Cc2cc(OC)c(OC)c(OC)c2)c1C	2	i	2	-4	3	-4	10	-4
C=C(C)CN1CCN(c2c(CCC#N)c(C)c(C#N)c3nc4ccccc4n23)CC1	6	i	-5	2	-14	-15	·	-28
NS(=O)(=O)c1ccc(CCNC(=O)c2ccc(C#CC3(O)CCCCC3)cc2)cc1	48	i	-21	-13	2	0	3	11
O=C(CC1Sc2ccccc2NC1=O)NCc1cccc(Cl)c1 (centres undefined)	-13	i	-1	-3	-7	·	15	-5
CN(C)c1ccc(N2C(=O)CC(Nc3ccc(N4CCOCC4)cc3)C2=O)cc1 (centres undefined)	-9	i	4	2	48	-10	·	4
COC(=O)COc1ccc(C(C2C(=O)CC(C)(C)CC2=O)C2C(=O)CC(C)(C)CC2=O)cc1	-1	i	-2	-2	-5	-10	-12	5
COc1cc2[nH]c3c(Cl)ncnc3c2cc1OC	-18	i	8	-6	-4	-8	-12	7
Cc1ccc(S(=O)(=O)N2CCOCC2)cc1NC(=O)CNC1CCCC1	7	i	1	4	8	·	18	3
CCOc1ccc(CNC(=O)Cn2ccc3cc(S(=O)(=O)N4CCCC4)ccc32)cc1	-3	i	1	-1	-14	-14	11	-2
Cc1ccccc1OCC(=O)NCCCNC(=O)c1ccccn1	-6	i	0	1	-8	-6	-18	-2
O=C(C(=O)N1CCN(c2ccc(F)cc2)CC1)N1CCCCC1	3	i	9	5	4	-14	9	-4
Cc1cc2ncn(/N=C/c3ccc([N+](=O)[O-])o3)c2cc1C	15	i	-8	-4	19	-3	·	12
Cc1cc(C)nc(NS(=O)(=O)c2ccc(N=NN(C)C)cc2)n1	-12	i	8	0	-6	-16	-8	4
O=C(O)CC1S/C(=N/N=C/c2ccccn2)NC1=O (centres undefined)	10	i	-3	0	9	·	7	6
CC(=O)OCC1=C(C(=O)O)N2C(=O)C(NC(=O)C(C)Cn3cc(Cl)cn3)C2SC1 (centres undefined)	-9	i	1	-1	24	·	1	4

Taken from the listing, 3 compounds:
SMILES	CSC inhib	Rce1 inh	MT1-MMP act inh	MT1-MMP act inh RFP	eIF4H FP inh	UUG fidelity	HIV Env fusion	PABP FP inh	others
Cc1cc(C)nc(NS(=O)(=O)c2ccc(N=NN(C)C)cc2)n1	-12	i	8	0	-6	-16	-8	4
O=C(O)CC1S/C(=N/N=C/c2ccccn2)NC1=O (centres undefined)	10	i	-3	0	9	·	7	6
CC(=O)OCC1=C(C(=O)O)N2C(=O)C(NC(=O)C(C)Cn3cc(Cl)cn3)C2SC1 (centres undefined)	-9	i	1	-1	24	·	1	4

Carrying on.
SMILES	CSC inhib	Rce1 inh	MT1-MMP act inh	MT1-MMP act inh RFP	eIF4H FP inh	UUG fidelity	HIV Env fusion	PABP FP inh	others
Cc1cc(-c2ccccc2)cc(C)n1	·	·	0	1	·	-25	-26	·
COc1ccccc1NCc1nnc(SCC(=O)N/N=C/c2ccco2)n1-c1ccc(Cl)cc1Cl	20	i	2	2	5	-9	1	12
CC1=C(/C=C/C(C)=C/C=C/C(C)=C/C(=O)Nc2ccc(O)cc2)C(C)(C)CCC1	104*	·	-20&-14	-24&-19	·	-4	23	·
O=C(N/N=C1/CCS(=O)(=O)c2ccc(F)cc21)c1cccnc1	-6	i	-11	-9	0	-3	-3	8
COC(=O)c1sccc1NC(=O)c1cnc2cc(C)nn2c1C	0	i	0	5	0	·	-2	-2
C=CCN1C(=O)C(CC(=O)Nc2ccc(C)cc2)SC1=Nc1c(C)n(C)n(-c2ccccc2)c1=O (centres undefined)	-10	i	1	1	-2	·	·	-6
COc1ccc(-c2csc(N3CCN(c4cc(C)nc5ccccc45)CC3)n2)cc1OC	95*	i	-9	-13	-13	6	41	-12
CCc1nnc(NS(=O)(=O)c2ccc(NC(=O)c3cccc(Br)c3)cc2)s1	-9	i	-4	0	·	8	10	·
COc1ccc(OC)c(CN2CCSCC2)c1	-1	i	0	1	-13	2	-14	26
CCCNC(=O)C1(C)CCCN(C(=O)c2ccc3ccccc3c2)C1 (centres undefined)	·	·	3	4	·	3	7	·
COc1ccc2cc(/C(C)=N/NC(=O)C3CC3)ccc2c1	-13	i	5	2	-4	·	-38	6
Cc1onc(-c2ccccc2Cl)c1C(=O)Nc1nnc(-c2ccc(Br)cc2)s1	53	i	4	-9	-3	-15	-5	-10
COc1ccc(Cn2c(O)c(/C=N/NC(=O)c3cccnc3)c3ccccc3c2=O)cc1	·	i	-35	-1	0	·	-1	0
CCCNC(=O)C1(C)CCN(C(=O)C(c2ccccc2)c2ccccc2)C1 (centres undefined)	·	·	-2	1	·	-2	-11	·
CC(=O)NCCc1c[nH]c2ccc(O)cc12	12	i	7	1	·	-5	-3	·
CCOCCCn1c(=NC(=O)c2cccnc2)c(C(=O)OCC)cc2c(=O)n3ccccc3nc21	15	i	2&3	0&2	-2	-19	·	2
CCOc1cccc(C=Nc2cc(C)cc(C)c2O)c1O	-3	i	-7	11	-9	-5	·	17
COC(=O)c1ccccc1NC(=O)Cn1c(=O)n(CCC(=O)NC2CCN(Cc3ccccc3)CC2)c(=O)c2ccccc21	3	i	4	3	-1	14	-9	6
O=C(Cn1ncc(Cl)c(Cl)c1=O)NC1CCS(=O)(=O)C1 (centres undefined)	-6	i	1	2	65	·	-8	28	eIF4H FP inh retest=26;PABP FP inh retest=4
COCCNC(=O)C1CCCN(Cc2ccc(-c3ccccc3)cc2)CC1 (centres undefined)	·	·	4	2	·	-16	3	·
COc1cc(Br)cc(-c2nc3c(c(=O)[nH]c(=O)n3Cc3ccccc3)n2C)c1O	6	i	7	0	-2	6	-99	11
O=C(Nc1cccc(Cl)c1)c1csc(COCCO)n1	·	·	0	1	·	-35	-22	·
CC(C)Cc1csc(NC(=O)c2ccc(Br)cc2)c1C(=O)O	33	i	-1	4	-4	-13	-10	-1
CN(C)S(=O)(=O)c1ccc(C(=O)Nc2cccc(C(=O)O)c2)cc1	-15	i	-1	-2	-4	-12	·	-2
O=C(CSc1nc2c(c(=O)[nH]1)CCC2)Nc1ccccc1Cl	7	i	0	-2	-4	·	-1	0
Further structures follow.
SMILES	CSC inhib	Rce1 inh	MT1-MMP act inh	MT1-MMP act inh RFP	eIF4H FP inh	UUG fidelity	HIV Env fusion	PABP FP inh	others
Cc1ccc(SC[C@H](Cc2ccccc2)N2CCN(C)CCC2=O)cc1	·	i	0	2	0	-7	?	-3
CC(=O)Nc1ccc(NC(=S)NC(=O)/C=C/c2ccccc2)cc1	2	i	-5	-8	-4	·	7	21
N#Cc1c(NC(=O)CSc2nc3ccccc3c(=O)n2Cc2ccco2)sc2c1CCCC2	-10	i	-9	-7	2	-10	-29	-3
Cc1cc(C)nc(SCc2csc(-c3ccccc3)n2)n1	10	i	1	-8	-10	·	·	-3
CC(C)CC1C(=O)N(Cc2cn(CC3CCCCC3)nn2)CCS(=O)(=O)N1Cc1ccc(-c2cccc(C#N)c2)cc1 (centres undefined)	·	·	-2	-5	·	-10	21	·
COC(=O)c1cccc(NC(=O)CSc2nc(O)c(-c3ccccc3)c(=O)[nH]2)c1	2	i	1	5	?	·	16	37*	PABP FP inh retest=86*
COc1ccc(OC(C)c2ccc(C#N)c(=O)[nH]2)cc1 (centres undefined)	-15	i	0	2	-6	·	-1	-11
COc1ccc(OC)c(NC(=O)COC(=O)Cc2ccc(Br)cc2)c1	7	i	3	1	0	·	13	3
CC(C)(C)C(=O)Nc1ccc(C(=O)Nc2cccc(Oc3ccc(C(=O)O)c(C(=O)O)c3)c2)cc1	-10	i	1	2	4	6	9	-2
O=C(COc1cccnc1[N+](=O)[O-])Nc1ccc(F)cc1	-16	·	4	3	·	·	-22	·
COc1ccc(Cl)cc1NC(=O)C1CC(c2c(F)cccc2Cl)=NO1 (centres undefined)	43	i	-1	-7	-7	-4	-2	-11
Cc1ccc(C)n1-c1cccc(C(=O)Nc2ccccc2)c1	·	i	-1	2	0	-4	-4	-6
Cc1ccc(C(=O)Nc2ccccc2OC(F)F)cc1	-4	i	-3	3	-3	-15	-12	-2
CCN(CC(=O)Nc1ccccc1C(F)(F)F)C(=O)c1ccc2[nH]c3c(c2c1)CC(C)CC3 (centres undefined)	22	i	5	-5	·	·	17	·
COc1cccc(CC2(CO)CCCN(Cc3nc(-c4cccs4)oc3C)C2)c1 (centres undefined)	13	i	-1	2	5	-6	1	-5
CC1CCCCC1NC(=O)CN1CCC(NC(=O)c2ccc([N+](=O)[O-])cc2)CC1 (centres undefined)	-2	i	0	-5	1	8	15	2
O=C(CN1CCCCC1)N/N=C/c1cccc(C(F)(F)F)c1	1	i	1	3	·	-14	2	·
COc1nc(OC)nc(N2CCC(C(=O)NC3CC3)CC2)n1	3	i	3	5	-5	·	-22	6
CCOC(=O)c1sc(NC(=O)c2cc3c(s2)CCC(C)C3)nc1C (centres undefined)	5	i	1	4	42	-3	·	25
COc1ccc(-n2c(Cn3c(=O)sc4ccccc43)nnc2SCC(=O)N2CCCCC2)cc1	-10	·	-2	3	-2	-1	-22	-2
C=CCSc1nn2c(=O)c3ccccc3nc2s1	-2	i	6	6	-9	-8	-239	-7
COc1ccc(Cn2c(CCC(=O)Nc3ccc(CC#N)cc3)nc3cccnc32)cc1	5	i	0	2	-8	-9	16	-7
COc1ccc(C(=O)NC(=S)Nc2ccc3[nH]c(=O)[nH]c3c2)c(OC)c1	5	i	-8	4	·	-12	-2	·
O=C(c1cccc2nccnc12)N1CCCC(Nc2ccc(F)c(F)c2)C1 (centres undefined)	-1	i	2	1	-18	0	7	-9
CCN(CC)CC#CCOC(=O)C(O)(c1ccccc1)C1CCCCC1 (centres undefined)	7	i	0	-3	-6	-27	-2	6
NC(=O)CC[C@@H]1NC(=O)[C@H](CO)NC(=O)c2cc([N+](=O)[O-])cc(I)c2OCC[C@@H](C(N)=O)NC1=O	·	i	-2	2	-5	-7	-23	-8

Screening data: PubChem BioAssay, several laboratories

Compounds were not picked by outcome. Share with any hit: about 3%.
